Source: PubChem BioAssay (ICCB-Longwood Screening Facility, Harvard Medical School)
S aureus helic – blocks Staphylococcus aureus DNA helicase; purified S. aureus helicase, fluorescence unwinding assay; about half of the hits fall short of the stated cut; inhibition, %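 (tested at about 80 µM)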; actives 0.05% (n = 120,000); AID 485395;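 active = both duplicates at 50% or more, or one of them with a favoured structure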;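 note: 0% = mean of negative control wells and 100% = mean of positive control wells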
MgrA-DNA mod – modulators of Staphylococcus aureus MgrA DNA binding; actives 0.13% (n = 84,000); inhibition, %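 (about 10 µg/mL by stock and volumes)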; fluorescence polarization;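 active = above 50% in either of two replicates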;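 note: 0% = protein plus DNA without compound and 100% = DNA alone without protein; higher means less MgrA bound to DNA so lower polarization; one replicate is shown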
The depositor's hits bear a star; / = not tested or not shown. Some of the compounds tested; count on the stated rates, not on these rows.

S aureus helic	MgrA-DNA mod	canonical_smiles
/	0.9	Fc1c(CSC2=NCCN2)cccc1CSC1=NCCN1
-8	/	CCCN1/C(=C(\C#N)C2=NS(=O)(=O)c3ccccc32)N(C)c2ccccc21
-18	/	Cc1ccc(N/C=C(\C#N)c2nc(-c3cc4ccccc4oc3=O)cs2)cc1F
1	-5.4	CC(SC12CC3CC(CC(C3)C1)C2)C(=O)O (stereo not drawn)
8	1.2	O=C(CSC1=NCCS1)NC(c1ccccc1)c1ccccc1
-18	/	CCOC(=O)c1c(C)c(C(=O)Nc2cccc(C)c2)c(C)n1C
11	-0.2	Cc1cc2ccccn2c1C(=O)c1ccccc1
-5	-2.8	C=CCN1C(=O)C2Cc3c([nH]c4ccccc34)C(c3ccc(O)cc3)N2C1=S (stereo not drawn)
-9	-13	O=C1CC(NC(=O)c2ccc(Cl)cc2)C(=O)N1 (stereo not drawn)
11	1.5	O=C(NCCO)c1cc[n+](CC(=O)c2cccs2)cc1
/	0.1	O=C(CCc1nc(-c2ccc(Cl)cc2)no1)NNS(=O)(=O)c1cc(C(F)(F)F)cc(C(F)(F)F)c1
/	0.4	O=[N+]([O-])c1cccc(S(=O)(=O)Nc2cccc(-c3cn4ccccc4n3)c2)c1
-19	-2.2	CC1=NOC(O)(C(F)(F)F)C1 (stereo not drawn)
7	3.3	CCC(=O)NC1(C(F)(F)F)C(=O)NC(C)=C1C(=O)OC (stereo not drawn)
1	/	CCCCn1c(N)c(N(C)C(=O)CSc2nnc(C)n2-c2ccccc2OC)c(=O)[nH]c1=O
10	3.0	CCOC(=O)C1CCN(C(=O)c2cccc(Cl)c2)CC1
9	/	CCn1c(=O)c(C(=O)CC#N)c(N)n(Cc2ccccc2)c1=O
5	-2.5	CC(=O)Nc1ccc(-c2nc3ccc(NC(C)=O)cc3s2)cc1
10	/	Cc1cc(=O)oc2cc(OC(=O)CSc3nc(Cc4ccccc4)cc(=O)[nH]3)ccc12
20	/	OC(CNC1CCCC1)Cn1c2ccccc2c2ccccc21 (stereo not drawn)
/	-0.7	O=C(CSc1n[nH]c(=O)n1Cc1ccco1)c1ccc(F)cc1
18	0.5	Cc1nn(-c2ccccc2)c(C)c1Sc1n[nH]c(=O)[nH]c1=O
7	/	CC(NC(=O)C(C)N1CCN(S(=O)(=O)c2ccc(F)cc2)CC1)c1ccccc1 (stereo not drawn)
21	1.1	O=C(Cc1ccccc1)NCc1ccc(-n2cccc2)cc1
7	1.1	O=C1C2(CCC13COC(c1ccco1)OC3)COC(c1ccco1)OC2 (stereo not drawn)

Carrying on:
S aureus helic	MgrA-DNA mod	canonical_smiles
/	-3.2	Nc1ccccc1C(=O)NCCCNC(=O)c1ccccc1N
/	-1.3	CCc1nc2ccccc2nc1N1CCCC1
15	/	O=C(CCc1nc2ccccc2c(=O)[nH]1)NC1CCCCC1
11	2.7	Nc1nc2c(c(Nc3ccccc3)n1)C(=O)CCC2
7	0.2	Nc1c(N2CCOCC2)c2ccccc2oc1=O
13	/	COc1ccc(S(N)(=O)=O)cc1C(=O)OC1CCCCC1=O (stereo not drawn)
2	-0.5	Cc1c(C(=O)O)oc2ccc(S(=O)(=O)N3CCCC3)cc12
/	-0.1	CC1(C)O[C@@H]2CC3C4C[C@H](F)C5=CC(=O)CC[C@]5(C)C4[C@@H](O)C[C@]3(C)[C@]2(C(=O)CO)O1 (stereo partly drawn)
14	/	O=C(Nc1nc2cc3c(cc2s1)OCCO3)c1ccncc1
0	-1.1	CS(=O)(=O)N/N=C/c1ccccc1
/	2.0	O=C(N[C@H](CO)[C@@H](O)c1ccc([N+](=O)[O-])cc1)C(Cl)Cl
-3	/	Cc1nc2c(c(C)c1CCC(=O)NCCc1ccco1)c(=O)n(C)c(=O)n2C
13	4.2	COc1ccc(C(=O)OC2=C(c3ccccc3)C(=O)c3ccccc3C2=O)cc1
/	-1.9	CC(=O)c1cc2cc(Cl)ccc2o1
-9	/	Cc1oc(-c2ccccc2)cc1C(=O)NC1CCN(Cc2ccccc2)CC1
-11	/	O=C1CCC(C(=O)OCc2cc(=O)n3cc(Br)ccc3n2)=NN1
/	-2.6	COc1ccc(Oc2ccc(C(F)(F)F)cn2)cc1
15	3.7	C=CCN(CC=C)C(=O)c1ccc(OC)c(Br)c1
-2	2.5	N/N=C1\CCCc2c1[nH]c1ccc(C(F)(F)F)cc21
/	-3.4	COc1cc([C@@H]2c3cc4c(cc3[C@H](O)[C@H]3COC(=O)[C@H]23)OCO4)cc(OC)c1OC
13	/	CC(=O)NCCNc1nc2c(-c3ccccc3)nnn2c2ccccc12
32	103*	Cc1ccc(C)n1-c1cccc(C(=O)O)c1
/	-0.3	CCSc1ncc(CO)n1C
9	/	C/C(=N/Nc1cccc2cccnc12)C(=O)O
-21	/	Cn1c(SCCO)nc2c(c1=O)C1(CCCCC1)Cc1ccccc1-2

(list continues)
S aureus helic	MgrA-DNA mod	canonical_smiles
10	/	CCSc1cc(C)[nH]c(=O)n1
10	-0.3	COC(=O)c1sc2cccc(Cl)c2c1Cl
-22	/	CC1CN(C(=O)c2cccs2)CCN1C(=O)c1cccs1 (stereo not drawn)
3	-0.5	CCCc1[nH]n(-c2ccccc2)c(=O)c1C(C)=NCc1ccc(S(N)(=O)=O)cc1
/	-1.3	Cn1nccc1NS(=O)(=O)c1ccc(F)cc1
-6	/	CCOC(=O)c1[nH]c2ccc(OC)cc2c1NC(=S)N1CCCC1
3	-1.4	COc1ccc(C2CCCCC2)cc1
22	/	CS/C(N)=N/S(=O)(=O)c1ccc(C)cc1
/	-1.6	Cn1c2c(c3ccccc31)/C(=N/O)CCC2
4	-13	COc1ccc(/C=C2\CCCC3=C2Nc2ncnn2C3c2ccc(OC)cc2)cc1 (stereo not drawn)
/	2.1	Cc1ccc(S(=O)(=O)c2ccc(C(=O)O)cc2[N+](=O)[O-])cc1
27	/	Cn1/c(=N/NC(=O)c2ccc(S(=O)(=O)N3CCCCC3)cc2)sc2ccccc21
2	0.3	O=C(NC1CCCCC1)N1CCN(c2ccccc2F)CC1
8	0.9	CC(NC(=O)OC(C)(C)C)c1nnc(SCC(=O)N(C)C)o1 (stereo not drawn)
-20	/	O=C(/C=C/c1ccco1)C1=C(O)c2ccccc2C1=O
16	/	CCc1ccc(S(=O)(=O)N2CCOCC2)cc1
-2	/	CN(Cc1ccc(OC(F)F)cc1)C(=O)Cn1cnc2ccccc2c1=O
5	/	Cc1sc2ncnc(Oc3cccnc3)c2c1C
/	-0.7	O=C(Oc1cncc(Cl)c1)c1cccs1
6	1.0	O=C1CCCc2oc3c(c21)CCCC3
2	/	CC(Sc1nnc(-c2ccc(Cl)cc2)o1)C(=O)c1ccccc1 (stereo not drawn)
17	-1.5	CCCCn1c(C(=O)OC)cc(=O)c2c(C)n(-c3ccccc3)c(=S)nc21
14	0.6	CCOc1ccc(-c2cn(C(=O)Nc3ccccc3)nc2N)cc1
10	-0.1	C[N+](C)(C)CCN1C(=O)CSC1=O
/	-1.9	CC1(C)COC(c2ccc(C(C)(C)C)cc2)=N1

Next section:
S aureus helic	MgrA-DNA mod	canonical_smiles
-9	/	Cc1nn(-c2nc3ccccc3[nH]2)c(N)c1N=Nc1ccc(S(N)(=O)=O)cc1
-7	/	CC(=O)N1CC2(C)CN(C(C)=O)CC(C)(C1)C2O (stereo not drawn)
-6	-1.9	Clc1nc(Cl)nc(NCCC2=CCCCC2)n1
-2	2.0	CCN=C(Nc1cc(-c2ccccc2)[nH]n1)SC
-23	2.6	O=C(Nc1cc(Cl)ccc1C(=O)O)c1ccc(F)cc1
-19	/	N#CC1(C#N)C(C#N)(C#N)C12CCCCC2
2	-0.3	CC(C)CNC(=O)c1cc(-c2ccccc2O)no1
0	/	O=C(Nc1ccc(-c2ccccc2)cc1)c1ccccn1
8	1.4	CCNc1nc(NC(C)(C)C)nc(N2CCCCC2)n1
/	-2.4	CCc1cc(C(=O)OC)c(N)s1
/	-1.4	N#C/C(=C\N(CCS(=O)(=O)c1ccc(Cl)cc1)Cc1cccs1)S(=O)(=O)c1ccc(Cl)cc1
-24	/	COc1ccc(CNC(=O)Cn2cc3c(n2)CCCC3)cc1
/	-1.6	Cc1cn(CCC(=O)NC2CCN(Cc3ccccc3)CC2)c2ccccc12
0	0.3	CCOc1ccc(C(O)c2nc3ccccc3n2C)cc1 (stereo not drawn)
-11	/	O=c1cc(CSc2nnc(COc3ccccc3Cl)n2C2CC2)nc2sccn12
23	-3.1	FC(F)(F)c1ccc(N=Cc2cccs2)cc1
2	-1.0	COC1(c2ccc(Cl)cc2)OC(=O)c2ccccc21 (stereo not drawn)
-8	92*	CCOc1ccc(C(=O)CSc2nnc(-c3ccco3)c(-c3ccco3)n2)cc1NC(=O)CC
/	2.3	COCCC(=O)NC12CC3CC(CC(C3)C1)C2
34	/	COc1ccc2c(c1)c(C(=O)CN(C)C)c(C)n2C
-29	/	O=C(CC(c1ccc(F)cc1)N1Cc2ccccc2C1=O)N1CCCCC1 (stereo not drawn)
8	2.6	COc1ccc(C(=O)NCC#N)cc1
/	-1.2	Cc1onc(-c2c(Cl)cccc2Cl)c1C(=O)Oc1c(Cl)cncc1Cl
3	-1.1	O=C(c1ccn(C(=O)c2ccccc2)n1)N1CCOCC1
/	-0.9	CCOC(=O)c1cnc(SCc2ccc(Cl)cc2)nc1N

Looked up by structure from above:
S aureus helic	MgrA-DNA mod	canonical_smiles
34	/	COc1ccc2c(c1)c(C(=O)CN(C)C)c(C)n2C
/	-1.2	Cc1onc(-c2c(Cl)cccc2Cl)c1C(=O)Oc1c(Cl)cncc1Cl
3	-1.1	O=C(c1ccn(C(=O)c2ccccc2)n1)N1CCOCC1
-7	/	CC(=O)N1CC2(C)CN(C(C)=O)CC(C)(C1)C2O (stereo not drawn)
-23	2.6	O=C(Nc1cc(Cl)ccc1C(=O)O)c1ccc(F)cc1
23	-3.1	FC(F)(F)c1ccc(N=Cc2cccs2)cc1
-29	/	O=C(CC(c1ccc(F)cc1)N1Cc2ccccc2C1=O)N1CCCCC1 (stereo not drawn)

Reformatted tab-delimited: part of the list above.
molecule	S aureus helic	MgrA-DNA mod
Cc1nn(-c2nc3ccccc3[nH]2)c(N)c1N=Nc1ccc(S(N)(=O)=O)cc1	-9	/
CCOC(=O)c1c(C)c(C(=O)Nc2cccc(C)c2)c(C)n1C	-18	/
Nc1nc2c(c(Nc3ccccc3)n1)C(=O)CCC2	11	2.7
C=CCN1C(=O)C2Cc3c([nH]c4ccccc34)C(c3ccc(O)cc3)N2C1=S (stereo not drawn)	-5	-2.8
FC(F)(F)c1ccc(N=Cc2cccs2)cc1	23	-3.1
Cc1oc(-c2ccccc2)cc1C(=O)NC1CCN(Cc2ccccc2)CC1	-9	/

The list continues.
S aureus helic	MgrA-DNA mod	canonical_smiles
2	0.7	CCOC(=O)C1=C(C)NC(=O)NC1c1c(Cl)nc2c(C)cccn2c1=O (stereo not drawn)
-6	/	CCOC(=O)N1CCC(=NNC(=O)Cn2nnc3ccccc32)CC1
11	-4.6	CCc1ccc(C(=O)Cn2c(NCCO)nc3ccccc32)cc1
/	3.0	CSc1nc(C(N)=O)c(N)s1
-6	/	O=C(CSc1ncnc2c1cnn2-c1ccc(F)cc1)Nc1ccc2c(c1)OCO2
-14	/	CC1(C)CC(=O)C2=C(C1)NC(=O)CC2C(=O)Nc1ccc(F)c(Cl)c1 (stereo not drawn)
3	-0.9	Cc1nc2nc(Cc3ccccc3)[nH]n2c(=O)c1Cc1ccccc1
6	-1.9	Nc1ncnc2nc(SCC(=O)O)[nH]c12
23	9.9	C=CCNc1nc(N2CCCC2)nc2ccccc12
2	-1.8	S=c1[nH]nc(C2COc3ccccc3O2)n1-c1ccccc1 (stereo not drawn)
/	-0.1	CCO/C=C(\C#N)S(=O)(=O)c1ccc(Cl)cc1
2	1.8	C/C=C/C(=O)N1c2ccccc2C(C)=CC1(C)C
13	-1.1	COc1ccc(OC)c(/C=C2\CC(c3ccccc3)C/C(=C\c3cc(OC)ccc3OC)C2=O)c1 (stereo not drawn)
3	8.2	Nc1ccc(C(=O)OCCCc2nc3cc4ccccc4cc3[nH]2)cc1
-2	2.6	COc1ccc2nc(/C(N)=N/O)sc2c1
6	-8.8	CC(C)(CO)C12CC3CC(CC(C3)C1)C2
-19	0.1	CCCn1c(C)cc(C)c(C#N)c1=O
/	-0.1	Cc1c(CC(=O)Nc2ccccc2)sc2ccccc12
17	/	O=c1c(-c2cscn2)coc2cc(O)ccc12
7	/	O=C(NCc1ccccc1)NC1=NCCS1
-24	/	O=c1oc2ccccc2c(N2CCCC2)c1CN1CCCC1
2	0.2	COc1ccc(S(=O)(=O)N2c3cc(F)ccc3CCC2C)cc1OC (stereo not drawn)
-3	/	COc1ccccc1-c1nnc(NC(=O)CSC2=NCCS2)s1
9	/	CCOC(=O)N1CCC(NC(=O)CN2N=C(c3ccc(Cl)cc3)CCC2=O)CC1
-1	-1.5	CCOC(=O)C(Cc1ccccc1)C(=O)Nc1ccccc1C (stereo not drawn)

The list goes on.
S aureus helic	MgrA-DNA mod	canonical_smiles
-12	/	O=C(COC(=O)c1ccc(NS(=O)(=O)c2cccs2)cc1)Nc1ncc(Br)s1
6	/	Cc1cc(C)cc(NC(=S)N2CCC(N(C)CC3CCCO3)CC2)c1 (stereo not drawn)
-11	/	Cc1ccc(Nc2nc(CSc3nnc(-c4ccccc4)o3)cs2)cc1
7	/	Cc1nc2ncnn2c(C)c1CCC(=O)Oc1ccccc1
16	/	O=C(CSCC(=O)NC1CCCC1)Nc1ccccc1
1	-3.5	O=C(O)CC(C(=O)Nc1ccc(Cl)cc1)N1CCCCCC1 (stereo not drawn)
13	/	CC(=O)N1c2ccccc2C(=O)C1Cc1ccccc1 (stereo not drawn)
-14	/	CCS(=O)(=O)c1ccc(O)c(N=Cc2ccncc2)c1
/	-1.3	O=C1NC(=Nc2ccccc2Cl)S/C1=C\c1ccc(O)c([N+](=O)[O-])c1
-19	2.1	Cc1ccc(NC(=O)c2oc3ccc4c(c3c2C)C(=O)CC(C)(C)O4)cc1
5	/	Cc1ccccc1NC(=O)Nc1ccccc1C
4	/	O=C(CCSc1ccc(Cl)cc1)N1CCN(c2ccc(O)cc2)CC1
